Bead autofluor: compound fluorescence in toxin protease inhibitor counterscreen. compound autofluorescence counterscreen, microsphere flow cytometry; active compounds read high. fluorescence intensity (no concentration beside the values). hit rate 3.1% among 360,000. AID 624483;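 active = at least 3 SD above the mean of all compounds, about 16000 in these data; inconclusive = too few beads counted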;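 note: 100 nL of 1 mM stock went into each well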
Mtb hypoxia inh: reduces hypoxia-regulated biosensor signal in M. tuberculosis. hit rate 0.1% among 300,000. M. tuberculosis hypoxia-regulated fluorescent reporter, fluorescence. fluorescence inhibition, % (no concentration beside the values). AID 1159583;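 active = 35 to 45% if threefold the growth effect, above 45% if 1.5-fold the growth effect; inactive = the rest, general growth blockers included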;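 note: wells of about 50 µL received 100 nL stock; 0% = vehicle wells and 100% = reference inhibitor wells; whole bacteria with a GFP reporter of the hypoxia response; strong numbers were not always called active; many hits fall short of the cut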
BJeLR lethal: kills HRASV12-expressing BJeLR cells. BJeLR (HRASV12) viability, CellTiter-Glo ATP luminescence, 48 h; reference of the scale not given here. inhibition, % (concentration not given with the values). hit rate 0.17% among 300,000. AID 1554;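 active = replicate mean above 50%; inconclusive = above 50% but judged a plate artefact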;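 note: 50 nL library stock added to about 25 µL; numbers are from one replicate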
RN4220 kill: S. aureus RN4220 growth inhibition. hit rate 0.33% among 330,000. inhibition, % (concentration not given with the values). AID 1259311. OD600, 16 h;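 active = z-score of -3 or lower and OD600 up to 0.18 on both plates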;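 note: plate controls were untreated cells for no effect and reference antibiotic for full effect; stock transfer was 100 nL into about 80 µL; one replicate is shown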
ugtP null kill: kills S. aureus RN4220 lacking UgtP; S. aureus RN4220 ugtP deletion, OD600 growth, 16 h; some inactives read as strong as hits; growth inhibition, % (no concentration beside the values); hit rate 0.54% among 330,000; AID 1259309;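 active = z-score under -3 and OD600 up to 0.15 on both plates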;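 note: plate controls were untreated wells for no effect and antibiotic for full effect; wells of about 80 µL received 100 nL stock; the first replicate is given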
PrP 5UTR inh: inhibition of PrP 5' UTR reporter expression; cell-based PrP 5' UTR mRNA reporter, plate reader; inhibition, % (no concentration beside the values); hit rate 0.35% among 340,000; AID 488862;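 active = every replicate at 50% or more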;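 note: 0 = median of the neutral control wells; tested in H4 reporter cells; numbers are from one replicate; inactives centre near -14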
Mtb hypoxia inh growth: further read-out of Mtb hypoxia inh, marked with its call; growth inhibition, %; measured here: M. tuberculosis growth (absorbance);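 0% = vehicle and 100% = reference antibiotic; read after six days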
An asterisk follows results filed as active; ? = inconclusive; . = not tested or not shown.

Under each structure: Bead autofluor, Mtb hypoxia inh, Mtb hypoxia inh growth, BJeLR lethal, RN4220 kill, ugtP null kill, PrP 5UTR inh
1	CC(Oc1ccc(Br)cc1)C(=O)NCC(c1cccs1)N1CCOCC1 (stereo unspecified)
→ ?, 1, 0, 2, 1.5, 2, 2
2	CN1C(=O)c2cccc3c(N)ccc(c23)C1=O
→ 2798, ., ., 2, ., ., 0
3	CNc1cc(Cl)c2nonc2c1[N+](=O)[O-]
→ 2101, ., ., -12, 94*, 98*, -19
4	O=S(=O)(c1ccccc1)N1CCC(n2cnc3ccccc32)CC1
→ 3133, -15, 2, -9, 8.9, 2, -16
5	O=[N+]([O-])c1ccc(C(O)CN=Cc2ccc(O)cc2O)cc1 (stereo unspecified)
→ 2658, 5, 11, 12, 1.3, 9, -1
6	CC(=O)Nc1ccc(S(=O)(=O)Nc2nc(-c3ccc(C(C)(C)C)cc3)cs2)cc1
→ 1949, -4, -5, -4, 2.9, 9, -25
7	CCC1CCCCN1C(=O)Nc1cc(Cl)ccc1OC (stereo unspecified)
→ 1981, 10, 10, 4, -0.5, 10, -15
8	O=C(c1ccc(F)cc1)n1c(=S)nc2ccccn21
→ 4696, 2, 2, 12, 2.1, 6, -72
9	CN1C(=O)N(S(=O)(=O)c2ccc(F)c(F)c2F)C(=O)C1(C)C
→ 9587, 2, 7, -2, 4.7, -4, -15
10	O=C(NCc1cccc(Cl)c1)c1ccc(N2CC3CC(C2)c2cccc(=O)n2C3)c(NC(=O)c2cccnc2)c1 (stereo unspecified)
→ 4771, -3, 3, 9, -0.8, 3, -3
11	Nc1nnnn1N=Cc1cccc(OCc2ccccc2Cl)c1
→ ., 4, -11, ., 5.9, -11, .
12	CCCCC(c1nnnn1Cc1ccco1)N1CCN(c2nc3ccccc3s2)CC1 (stereo unspecified)
→ 5178, ., ., 2, 5.2, 0, -14
13	FC(F)(F)c1ccc(CSc2ccccn2)cc1
→ 6341, 6, 14, -8, 1.9, 4, -30
14	Cc1onc(C(N)=O)c1C(=O)Nc1ncc(C(F)(F)F)cc1Cl
→ 4531, 14, 4, 0, 3.5, 3, -20
15	COc1cccc(NC(=O)C2CCCC2)c1
→ 4073, 5, 6, -3, 4.1, 1, -22
16	CN(CC(=O)NC1CCCCCCC1)S(=O)(=O)c1cnc[nH]1
→ 4455, 6, 7, 10, 3.1, 15, -26
17	COc1ccc(C(=O)Nc2nc3ccccc3[nH]2)cc1S(=O)(=O)N1CCCC1
→ 3322, -9, -1, 13, 6.5, 4, -21
18	Cc1ccc(C(C(=O)NC2CCCC2)N(C(=O)c2csnn2)C2CC2)cc1 (stereo unspecified)
→ 3221, 2, -2, 3, -0.1, -4, 4
19	Cc1ccccc1N1CC(=O)Nc2c(oc3nc(-c4ccccc4)cc(C)c23)C1=O
→ 4973, 9, 4, 3, 2.5, 7, -7
20	CCN1CCN(S(=O)(=O)c2ccc(Cl)c(C(=O)Nc3ccccc3N3CCOCC3)c2)CC1
→ 6998, 14, -2, -1, 2.1, 3, 4

Next section.
Under each structure: Bead autofluor, Mtb hypoxia inh, Mtb hypoxia inh growth, BJeLR lethal, RN4220 kill, ugtP null kill, PrP 5UTR inh
21	NS(=O)(=O)c1ccc(NC(=S)NCc2ccc(F)cc2)cc1
→ 4259, 1, 10, 5, 1.3, -9, -23
22	Cc1ccc(N(C(=O)c2ccc(S(=O)(=O)N3CCCC3)cc2)C2C=CS(=O)(=O)C2)cc1 (stereo unspecified)
→ 5174, 2, 8, -8, 5.2, 11, -23
23	Cc1ccc(OCC(=O)N(C)CC(=O)Nc2ccc(F)cc2)c([N+](=O)[O-])n1
→ 2514, -1, 10, 1, 0.4, 8, -5
24	O=C(CN1CCN(Cc2ccccc2Cl)CC1)NN=C/C=C/c1ccco1
→ ., 12, 5, ., 0.0, -2, .
25	CNC(=O)c1cc(-c2ccc(Cl)cc2)n(-c2ccccc2)n1
→ 3575, 16, 0, -2, 2.5, 8, -22
26	CCCc1c2c(cc3c(=O)cc(C(=O)OCC)oc13)CCCC2
→ 3591, 16, 15, -4, 2.3, 4, -16
27	CCOc1cc(/C=C2\C(=O)ON=C2c2ccccc2)ccc1OC
→ 3363, 3, 0, 5, 1.6, 4, -17
28	CN(C)S(=O)(=O)n1cc(/C=C(\NC(=O)c2ccccc2Cl)C(=O)N2CCOCC2)c2ccccc21
→ 6048, ., ., -8, ., ., -18
29	Cc1ccc(S(=O)(=O)/N=C2/NC(=O)/C(=C/c3cccnc3)S2)cc1
→ 3005, ., ., -4, ., ., -20
30	Cc1ccccc1OCC(=O)Nc1ccc(NC(=O)c2ccco2)cc1
→ 2218, 9, 13, 10, -1.5, -17, -20
31	CCCN1CCC(=O)N(C(CSc2ccc(OC)cc2)Cc2ccccc2)CC1 (stereo unspecified)
→ ., -3, 10, ., 4.8, 4, .
32	Cc1cc(=O)[nH]c(CN2CCOCC2)n1
→ 3407, -9, -5, -11, 9.1, 8, -18
33	COc1cc(S(=O)(=O)N2CCn3cccc3C2C)ccc1NC(C)=O (stereo unspecified)
→ ., 7, 6, ., 5.8, 4, -8
34	CN(C)CCCN(C(=O)c1ccco1)c1nc2ccc(Br)cc2s1
→ ., 11, 8, 0, -9.2, 8, -20
35	CC1CCCC(NC(=O)NC(=O)COC(=O)C2=NN(c3ccccc3)C(=O)CC2)C1C (stereo unspecified)
→ 3715, -7, -3, ., -2.2, -4, -17
36	C=CCNC(=O)C1CCN(c2c([N+](=O)[O-])cc(C(F)(F)F)cc2[N+](=O)[O-])CC1
→ 2081, ., ., 5, 3.8, -3, -20
37	CC1(NC(=O)CC[N+](C)(C)CCO)CS(=O)(=O)CC1S(=O)(=O)[O-] (stereo unspecified)
→ ., 5, 7, -22, 3.2, 6, .
38	COc1ccc(OC(=O)C(C)N2C(=O)c3ccccc3C2=O)cc1 (stereo unspecified)
→ 3402, 7, 14, -1, 6.6, 9, -32
39	Cc1ccc(F)cc1NS(=O)(=O)c1ccc(Cl)s1
→ 2919, 4, -2, ., 17, -2, -18
40	CCCCn1c(N)c(N(CC(C)C)C(=O)COC(=O)c2ccccc2NCCO)c(=O)[nH]c1=O
→ 6528, -2, 2, 2, 3.3, 6, -11

41) N#C/C(=C\c1cccc([N+](=O)[O-])c1)c1ccccn1
42) CCn1cc(CNC(=O)CCSc2nc(-c3ccco3)cc(C(F)(F)F)n2)cn1
43) CCC1SC(CC)C(=O)N(CC(=O)NCCc2ccccc2)C1=O (stereo unspecified)
44) COc1cc(C2N(c3ccccc3)CCN2c2ccccc2)cc(OC)c1OC
45) COc1ccc(NC(C)=O)cc1NC(=O)C1CCN(C(=O)Nc2ccccc2)CC1
46) O=C(NCc1ccccn1)c1c(Cl)cccc1Cl
compound no.	41	42	43	44	45	46
Bead autofluor	3377	.	5103	10719	5803	4906
Mtb hypoxia inh	2	9	1	3	0	.
Mtb hypoxia inh growth	16	22	3	-9	-5	.
BJeLR lethal	-1	12	9	-11	-1	-5
RN4220 kill	1.4	0.8	0.9	4.8	3.9	1.0
ugtP null kill	5	3	-4	-4	3	3
PrP 5UTR inh	-16	.	-12	-25	-4	-16

47) Cc1ccc2nc(C)c(C(=O)N/N=C/c3ccco3)cc2c1
48) CC(=O)NC12CC3CC(C1)CC(C(=O)OCC(=O)Nc1c(F)cccc1F)(C3)C2
49) CC(=O)Nc1c(F)c(F)c(F)c(F)c1F
50) COC(=O)C1=C(C)NC2=C(C(=O)c3ccccc32)C1c1cccc(OC)c1 (stereo unspecified)
51) CCN1CCN(C(=O)c2cc(-c3ccc(Cl)s3)nc3ccccc23)CC1
52) CSc1ccc(CN2CCCC(CO)(Cc3ccccc3)C2)cc1 (stereo unspecified)
compound no.	47	48	49	50	51	52
Bead autofluor	2554	2921	3805	3710	6727	7640
Mtb hypoxia inh	.	2	3	4	0	-8
Mtb hypoxia inh growth	.	0	6	-5	4	5
BJeLR lethal	-12	.	-5	-10	-3	-5
RN4220 kill	.	2.9	0.3	2.6	-1.2	0.2
ugtP null kill	.	3	-3	-12	1	8
PrP 5UTR inh	-5	-6	0	-16	-6	-26

53) Nc1nonc1-n1nnc(C(=O)N/N=C/c2ccc(Cl)cc2Cl)c1CN1CCOCC1
54) O=C(O)CCNS(=O)(=O)c1cccc(Br)c1
55) O=C1c2ccccc2-c2cccc(C(=O)N3CCCCCC3)c21
56) O=C(Nc1c2c(nn1-c1ccccc1)CS(=O)(=O)C2)C1CCCC1
57) COc1ccc(NC2CCCN(C(=O)CCc3ccccc3F)C2)cc1 (stereo unspecified)
58) CCOc1ncnc2c1oc1nc(CC(C)C)c3c(c12)CC(C)(C)OC3
compound no.	53	54	55	56	57	58
Bead autofluor	5779	4471	2024	?	4954	19881*
Mtb hypoxia inh	.	2	3	8	5	.
Mtb hypoxia inh growth	.	12	6	-2	4	.
BJeLR lethal	2	-3	18	1	6	-17
RN4220 kill	.	4.3	7.0	3.6	2.7	7.9
ugtP null kill	.	16	-4	10	6	-1
PrP 5UTR inh	-31	-26	-14	2	-2	5

Entries of single compounds, looked up by structure. Values in the order: Bead autofluor | Mtb hypoxia inh | Mtb hypoxia inh growth | BJeLR lethal | RN4220 kill | ugtP null kill | PrP 5UTR inh
CCOc1ncnc2c1oc1nc(CC(C)C)c3c(c12)CC(C)(C)OC3 is listed with 19881* | . | . | -17 | 7.9 | -1 | 5
Nc1nonc1-n1nnc(C(=O)N/N=C/c2ccc(Cl)cc2Cl)c1CN1CCOCC1 is listed with 5779 | . | . | 2 | . | . | -31
COc1ccc(NC2CCCN(C(=O)CCc3ccccc3F)C2)cc1 (stereo unspecified) is listed with 4954 | 5 | 4 | 6 | 2.7 | 6 | -2
O=C(O)CCNS(=O)(=O)c1cccc(Br)c1 is listed with 4471 | 2 | 12 | -3 | 4.3 | 16 | -26
O=C1c2ccccc2-c2cccc(C(=O)N3CCCCCC3)c21 is listed with 2024 | 3 | 6 | 18 | 7.0 | -4 | -14

The listing continues:
59) C[C@H]1CN(S(=O)C(C)(C)C)[C@H](CCO)/C1=C\c1ccccc1 (stereo partly specified)
60) CC(NC(=O)c1ccccc1F)C1CC1 (stereo unspecified)
61) Cc1cc2oc(=O)cc(CN(C)Cc3ccccc3)c2cc1C(C)C
62) CC1CCCCC1NC(=O)CSc1nnc(CC(=O)Nc2ccccc2F)n1C (stereo unspecified)
63) CCC1Oc2ccc(C)cc2N(CC(=O)N2CCN(c3ccc(F)cc3)CC2)C1=O (stereo unspecified)
64) CN(C)c1nc(Nc2ccc(F)cc2)nc(Oc2ccc(F)cc2)n1
65) Cc1noc(C)c1S(=O)(=O)N(C)CC1Oc2ccc(NC(=O)C3CCCCC3)cc2C(=O)N(C(C)CO)CC1C (stereo unspecified)
66) Cc1ccccc1NC(=O)Cn1nnc2c(cnn2-c2ccc(F)cc2)c1=O
compound no.	59	60	61	62	63	64	65	66
Bead autofluor	3125	5012	3235	4206	5969	1636	.	7899
Mtb hypoxia inh	1	.	2	0	1	8	5	1
Mtb hypoxia inh growth	-1	.	1	-1	0	-2	3	-6
BJeLR lethal	.	-6	-3	-7	1	-1	.	1
RN4220 kill	7.7	1.5	-9.3	3.4	0.3	-0.2	4.6	-2.0
ugtP null kill	13	3	-8	5	5	-4	0	10
PrP 5UTR inh	4	4	-13	-26	.	-9	.	-12

High-throughput results deposited in PubChem BioAssay by several laboratories.
